Source: PubChem BioAssay
AmpC nodet inh: AmpC beta-lactamase inhibition, detergent-free assay | 71,000 tested, 1.8% active | Potency, µM (highest dose often 28.7 µM), for inactives: at the top dose activity change, negative = inhibition | AmpC nitrocefin hydrolysis, absorbance 480 nm, no detergent; potencies from a single point are estimates | AID 585; active = falling curve, for most hits resting on a single point; inconclusive = weak or doubtful change; inactive = flat or rising curve; note: % of control where 0% means no effect; about half of the hits show no inhibition at the top dose; a quarter of the inactives give rising signals
Target sequence (P00811 whole entry, looked up): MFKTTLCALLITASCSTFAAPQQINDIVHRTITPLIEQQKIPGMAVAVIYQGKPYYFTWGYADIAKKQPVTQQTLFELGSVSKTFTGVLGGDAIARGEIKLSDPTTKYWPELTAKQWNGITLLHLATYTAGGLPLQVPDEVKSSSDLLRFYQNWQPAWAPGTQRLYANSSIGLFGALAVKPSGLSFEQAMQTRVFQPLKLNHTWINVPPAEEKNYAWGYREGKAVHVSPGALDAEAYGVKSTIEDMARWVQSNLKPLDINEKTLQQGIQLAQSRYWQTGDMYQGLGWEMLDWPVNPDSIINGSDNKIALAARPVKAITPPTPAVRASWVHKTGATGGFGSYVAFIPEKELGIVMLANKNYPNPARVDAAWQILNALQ
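AmpC in 20 mM phosphate buffer pH 7.0 was preincubated 15 min at room temperature with compounds. Nitrocefin (800 uM stock) was then added and hydrolysis followed at 480 nm every 20 s for 4 min.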
Numbers without * were called inactive; ? = inconclusive; [ ] = another dose, or the depositor's remark. Potency is the fitted concentration of half-maximal effect. Only part of the results is shown; rates above refer to the full screens.

molecule | AmpC nodet inh
ClC(Cl)(Cl)C(N1CCN(c2ccccc2)CC1)N1CCN(c2ccccc2)CC1 | 9%[5.75 µM]
COc1cc(NC(=O)C2CC(=O)NC3=C2C(=O)CC(C)(C)C3)c(OC)cc1Cl (stereo unspecified) | -15%
OC(Cn1cncn1)c1ccc(Cl)cc1Cl (stereo unspecified) | 2%
CC(=O)Nc1ccc(S(=O)(=O)N2CCN(C(=O)CCC3CCCC3)CC2)cc1 | 59%
CCCNS(=O)(=O)c1ccc(CCC(=O)NCC2CCCO2)cc1 (stereo unspecified) | 10%
CC1Cc2ccccc2N1C(=O)CCN1C(=O)C2C3C=CC(C3)C2C1=O (stereo unspecified) | 21%
O=c1ccc(-c2ccccc2)n[nH]1 | -6%[5.75 µM]
COCCn1nnnc1CN(CCCN1CCOCC1)Cc1cc2c(C)ccc(C)c2[nH]c1=O | 69%
COc1ccccc1NS(=O)(=O)c1ccc(C)c(C(N)=O)c1 | -8%
COc1ccc2[nH]c(=O)c(CN(Cc3ccccc3OC)Cc3nnnn3CC3CCCO3)cc2c1 (stereo unspecified) | 126%
COc1ccc(C(CC(=O)O)NC(=O)COc2ccccc2OC)cc1OC (stereo unspecified) | -7%
Cc1ccccc1NC(=O)CSc1nc2c(c(-c3ccco3)c1C#N)CCCC2 | -11%
CCOC(=O)c1cnc(-n2nc(C)cc2C)nc1-n1nc(C)cc1C | 51%
COC(=O)COc1ccc(S(=O)(=O)N2CCN(c3ccccc3F)CC2)cc1 | 32%
CSc1nc(N(CCO)CCO)c2sc3nc(-c4ccco4)c4c(c3c2n1)CCC4 | 12%
CCOc1ccc(Cn2c(SCCCCC#N)nc3c2c(=O)n(C)c(=O)n3C)cc1OCC | 136%
Cc1ccc(-n2c(C)cc(C(=O)OCC(=O)N(CC(C)C)C3CCS(=O)(=O)C3)c2C)cc1 (stereo unspecified) | 143%
CC(C)n1c(Nc2ccccc2)nc2ccccc21 | 5%
COc1cc2c(C(=O)NCc3ccc4c(c3)OCO4)cn(CC(C)C)c(=O)c2cc1OC | 112%
CCOC(=O)N1CCN(Cc2nc(N)nc(Nc3ccc(Oc4ccccc4)cc3)n2)CC1 | 116%
Cc1ccc(N2CC(C(=O)Nc3ccc(S(=O)(=O)N4CCCC4)cc3)CC2=O)cc1 (stereo unspecified) | 29%
COCCn1c(SCC(=O)c2ccc(CNC(C)=O)o2)nc2ccccc2c1=O | 21%
O=C(NCc1ccco1)c1nc(-c2ccccc2)n(-c2ccccc2)n1 | 8%
COc1ccc(CC(=O)Nc2cccc(C(=O)O)c2C)cc1 | -2%
Cc1ccnc(N2CCC(C(=O)NCc3ccc4c(c3)OCO4)CC2)n1 | 6%
CCOC(=O)c1[nH]c(C)c(C(=O)Nc2ccccc2F)c1C | 7%
CN1CCN(CCC(=O)Nc2ccc(F)c(F)c2)CC1 | 4%
FC(F)(F)c1cc(-c2cccs2)nc(NCc2ccco2)n1 | -22%
O=C(NCCN1CCN(c2ccccc2)CC1)C1CCCN(S(=O)(=O)c2cnc[nH]2)C1 (stereo unspecified) | 2.5µM*[single pt active]
O=C1c2ccccc2C(=O)N1Cc1nc2ccccc2c(=O)n1Cc1ccco1 | 12%
Nc1ccccc1S(=O)(=O)c1ccccc1N | -9%
Cc1cc(C(=O)OCC(=O)c2c(N)n(C)c(=O)n(C)c2=O)c(C)n1-c1ccccc1 | 64%
c1ccc(-c2nc3ccccc3nc2-c2ccccn2)nc1 | -8%
CCN1CCCC1CNC(=O)c1ccc2c(=O)n(CCOC)c(=O)[nH]c2c1 (stereo unspecified) | 4%
CCNc1nc2c(c(=O)[nH]c(=O)n2C)n1CC(C)C | 9%
Cc1cc(C)n2nc(SCc3cc(=O)n4c(C)cccc4n3)nc2n1 | 1%
CCN(CCCNC(=O)CN1C(=O)COc2ccccc21)c1ccccc1 | 35%
N#CCCN1CCN(S(=O)(=O)c2ccc(S(=O)(=O)NCc3ccccc3)cc2)CC1 | -11%
O=C1O/C(=C\Br)CC[C@@H]1c1cccc2ccccc12 | 3%
Cc1cccc(-n2ncc3c(Nc4c(C)n(C)n(-c5ccccc5)c4=O)ncnc32)c1 | 23%
O=c1[nH]c2ccccc2n1C1=CCCC1 | 0%
O=C(c1cc2ncc(Br)cn2n1)N1CCOCC1 | -14%
OC1CC(c2ccco2)NC2(CCCCC2)C1 (stereo unspecified) | 2%
N#Cc1ccc(NC(=O)COC(=O)C2=COCCO2)cc1 | -3%
Cc1c(C(=O)NCc2cccnc2)oc2ccc(S(=O)(=O)N3CCCCCC3)cc12 | 133%
Cc1cc(NC(=O)CSc2nc(C3CC3)nc3sc4c(c23)CCC(C)C4)no1 (stereo unspecified) | -8%
CN1CCN(CC(=O)N(C)c2nc(-c3ccccc3)cs2)CC1 | 2%
CSc1nnc(Cn2c(=O)sc3ccccc32)n1-c1cccc(Cl)c1 | 96%

Part of the list above, set out differently:
smiles: O=C1O/C(=C\Br)CC[C@@H]1c1cccc2ccccc12
  AmpC nodet inh = 3%
smiles: Cc1cccc(-n2ncc3c(Nc4c(C)n(C)n(-c5ccccc5)c4=O)ncnc32)c1
  AmpC nodet inh = 23%
smiles: O=c1[nH]c2ccccc2n1C1=CCCC1
  AmpC nodet inh = 0%
smiles: O=C(c1cc2ncc(Br)cn2n1)N1CCOCC1
  AmpC nodet inh = -14%

(next part)
structure | AmpC nodet inh
CC(C)(C)NC(=O)CSc1nnc(CN2CCCCCC2=O)n1-c1ccccn1 | 6%
Cc1ncc(CO)c2c1OC(C)(C)OC2 | -10%
C=CCn1c(SCC(=O)Nc2ccc3c(c2)OCO3)nnc1-c1cc(Br)ccc1O | ?
CC(C)NC(=O)C1CCCN(S(C)(=O)=O)C1 (stereo unspecified) | -8%
COc1ccc(-n2c(=O)c(CCc3ccccc3)nc3cnc(N(C)C)nc32)cc1 | -4%
CC(C)CCn1c(=S)[nH]c2ncccc2c1=O | -12%
Cc1cc(=O)oc2cc3c(cc12)OCCN3 | -5%
COn1c(=O)c(-c2ccc(Cl)cc2)[n+]([O-])c2ccccc21 | -1%
NS(=O)(=O)c1ccc(N=Nc2ccc[nH]c2=O)cc1 | -2%[5.75 µM]
O=C(c1ccccc1)N1CCN(CC2CC=CCC2)CC1 (stereo unspecified) | 22%
CCCc1cc(=O)[nH]c(SCC(=O)NC2CCCCC2)n1 | 2%
O=C(Nc1nccs1)C1CCN(S(=O)(=O)c2cccnc2)CC1 | -6%
COc1ccc(-c2ccc(=N)n(CCCC(=O)O)n2)cc1 | 8%
O=C(c1cc2ccccc2cc1OCC(O)CN1CCCCC1)N1CCCCC1 (stereo unspecified) | 4µM*[single pt active]
COc1cc(NC(=O)Cn2c(-c3cncs3)nc3ccccc32)cc(OC)c1OC | 70%

Laid out differently: results already given
O=C(c1cc2ccccc2cc1OCC(O)CN1CCCCC1)N1CCCCC1 (stereo unspecified)
  AmpC nodet inh: 4µM*[single pt active]

COc1cc(NC(=O)Cn2c(-c3cncs3)nc3ccccc32)cc(OC)c1OC
  AmpC nodet inh: 70%

Continuation:
structure | AmpC nodet inh
Brc1c(OCCOCCn2cncn2)ccc2ccccc12 | 2%
COc1cc(/C=N\n2nnnc2N)ccc1OCc1ccc(F)cc1 | 39%
Cc1ccc(OCC(=O)N(Cc2ccc(N(C)C)cc2)C2CCS(=O)(=O)C2)cc1 (stereo unspecified) | 74%
c1ccc2cc3c(cc2c1)-c1cccc2cccc-3c12 | 1%
N=C(N)c1ccc(N=Nc2c(O)ccc3c2[nH]c2ccccc23)cc1 | -9%[5.75 µM]
COc1ccccc1N(CN1CCCC1=O)C(=O)c1ccccc1F | 8%
Cc1ccc(C)c(-n2c(SCC(=O)Nc3nonc3C)nnc2-c2ccoc2C)c1 | 30%
Cc1ccc(N(C(C)C(=O)N2CCC(C)CC2)S(C)(=O)=O)cc1C (stereo unspecified) | 34%
O=C(O)C1CCCCC1C(=O)NCCCc1ccccc1 (stereo unspecified) | 12%
O=C(CCNS(=O)(=O)c1ccc2c(c1)CCC(=O)N2)NCc1ccc2c(c1)OCO2 | -9%
COc1ccc(-n2c(=O)cnc3cnc(Nc4ccccc4)nc32)cc1 | 13%
O=C(C1CCN(S(=O)(=O)c2cccc3cccnc23)CC1)N1CCc2ccccc21 | 17%
Cc1cccc(Nc2ncnc3nc[nH]c23)c1 | 56%
COc1ccc(-n2nnc3c(=O)n(CC(=O)N4CCCc5ccccc54)cnc32)cc1 | 5%
Cc1ccccc1S(=O)(=O)Cc1ccc(C(=O)NCCCN2CCN(C)CC2)o1 | -10%

Copied from the list.
Value for `Cc1ccc(OCC(=O)N(Cc2ccc(N(C)C)cc2)C2CCS(=O)(=O)C2)cc1` (stereo unspecified) under AmpC nodet inh: 74%
Value for `Cc1ccccc1S(=O)(=O)Cc1ccc(C(=O)NCCCN2CCN(C)CC2)o1` under AmpC nodet inh: -10%
Value for `Cc1ccc(C)c(-n2c(SCC(=O)Nc3nonc3C)nnc2-c2ccoc2C)c1` under AmpC nodet inh: 30%

Continued:
structure | AmpC nodet inh
COCCn1c(SCC(=O)Nc2cccc(OC)c2)nnc1-c1ccc(Cl)cc1 | 28%
Cc1c(C(=O)N2CCN(c3ccc(F)cc3)CC2)sc2nc(-c3ccccc3)cn12 | 72%
Cc1ccccc1NC(=O)c1ccc(S(=O)(=O)N(C)C)cc1 | 12%
CCOc1ccccc1NC(=O)CC1NCCNC1=O (stereo unspecified) | -1%
O=C(Cn1cnc2ccccc2c1=O)N1CCN(Cc2ccccc2)CC1 | 7%
Cc1cc(OCC(=O)NCCO)cc(C)c1Cl | 11%
c1ccc2c(c1)nc1n2CCN1CCNC1CCCCC1 | -9%
C=C1CCO[C@@]2([C@H](O)[C@@](C)(O)CO)NC(=O)[C@]1(O)NC2=O | 0%[5.75 µM]
Cc1[nH]c(N)nc(=S)c1CCC(=O)O | -2%[5.75 µM]
Nc1nc(SCC(=O)c2ccc(Oc3ccccc3)cc2)n[nH]1 | 10µM*
O=C(CN1CCN(c2ccc(F)cc2)CC1)Nc1cccc(C(F)(F)F)c1 | 98%
COC(=O)N1CC(c2ccccc2)CC1=O (stereo unspecified) | -12%
Cc1cccc(Cn2c(=O)c3c(nc4n3CCN4Cc3ccco3)n(C)c2=O)c1 | 90%
CCc1nc(SCCO)c2oc3ccccc3c2n1 | 13%
Cc1nn(C)c(C)c1S(=O)(=O)N(CC(=O)Nc1nccs1)c1ccc(C(C)C)cc1 | 63%
Cc1ccc(C2=CC(c3ccc(N(C)C)cc3)n3nnnc3N2)cc1 (stereo unspecified) | 34%
[Cu].[NH-][C@H](CC(=O)O)C(=O)O.[NH-][C@H](CC(=O)O)C(=O)O | 11%[5.75 µM]
O=C(c1cnccn1)N(c1ccccc1)C1(C(=O)NC2CCCC2)CCCCC1 | 34%
CCOc1cc2[nH]c(=O)n(CC3CCC(C(=O)NCCCOC)CC3)c(=O)c2cc1OCC (stereo unspecified) | 86%
Cc1ccccc1N1C(=O)c2ccccc2C1Nc1cccnc1 (stereo unspecified) | 4µM*[single pt active]
CC(C)Cn1nc(NC(=O)C2CCCO2)c2cc3ccccc3nc21 (stereo unspecified) | 57%
CC(=O)Nc1cc2c(cc1NC(=O)Cn1nc(-c3ccccc3F)ccc1=O)OCCO2 | 21%
CC(=O)Nc1ccc(-c2nn[nH]n2)cc1Cl | -4%
CC(=O)c1c(O)c(C)c(O)c(Cc2c(O)c3c(c(C(=O)/C=C\c4ccccc4)c2O)OC(C)(C)C=C3)c1O | 13µM*
CC1CC2(CC(C)(C(=O)CSc3n[nH]c(-c4ccccc4Cl)n3)OC2=O)C(=O)O1 (stereo unspecified) | 3%
CCOC(=O)N1CCN(C(=O)CN(Cc2ccccc2)S(=O)(=O)c2ccc(OC)c(C)c2)CC1 | 136%
Cc1cc(C)n2nc(SCC#N)nc2n1 | 3%
CC1CCC(C(=O)NC(C(=O)NCCN2CCC(C)CC2)C(C)C)CC1 (stereo unspecified) | -1%
O=C(C1CCCO1)N1CCc2ccccc21 (stereo unspecified) | 2%
O=C(NCc1ccco1)C(Cc1ccccc1)NS(=O)(=O)c1cccc2nsnc12 (stereo unspecified) | 5%
O=S(=O)(c1ccccc1)n1ccc2ccccc21 | -9%
COCCNC(=O)CS(=O)Cc1nc(-c2ccc(Cl)cc2)oc1C (stereo unspecified) | 26%
CCOC(=O)COc1ccc(S(=O)(=O)NCCC2=CCCCC2)cc1 | 12%
Cc1nnn(C23CC4CC(CC(C4)C2)C3)n1 | -5%
O=C(O)c1cnn2c1NC(c1cccs1)CC2C(F)(F)F (stereo unspecified) | 7%
O=C(O)c1ccccc1CN1CCC[C@@H](C(=O)O)C1 | 8%[5.75 µM]
CC(Oc1ccccc1Br)C(=O)N1CCc2ccccc21 (stereo unspecified) | 3%
Clc1ccc(-n2nnnc2-c2ccccc2)cc1 | -12%
Cn1cc(SCC(=O)NCC2CCCO2)c2ccccc21 (stereo unspecified) | 4%
O=C(O)c1cc(-c2ccco2)nc2ccc(Br)cc12 | -22%
COc1ccc(OC)c(C(=O)c2oc3ccccc3c2NC(C)=O)c1 | 17%
C=CCn1c(CCNC(=O)C(C)(C)C)nc2ccccc21 | 7%
CN(C)CCN1CC(C(=O)O)CC1=O (stereo unspecified) | 3%
O=C(c1ccncc1)N1CCC2(CCCN(Cc3ccccc3)C2)CC1 | 9%
CCn1cc(C(=O)O)c(=O)c2cc(F)c(N3CCNCC3)cc21 | 2%[12.8 µM]
CC(=O)c1ccc(N2CCCCCC2)c(F)c1 | 9%
CC(=O)c1cc2c(cc1NC(=O)Nc1cccc(Cl)c1)OCCO2 | -14%
N#Cc1cccc(-c2cc(NCc3cccs3)ncn2)c1 | -5%
COc1ccc(OC)c(NC(=O)CSc2ncccc2C(=O)O)c1 | -14%
c1ccc2sc(N3CCN(Cc4nnnn4CC4CCCO4)CC3)nc2c1 (stereo unspecified) | 78%
CC(C)(C)c1cc(CN2CCCC(O)C2)c(O)c(C(C)(C)C)c1 (stereo unspecified) | 108%
